Assay outcomes: PubChem BioAssay, National Center for Advancing Translational Sciences (NCATS)
MARV entry inh – inhibitors of Marburg virus binding or cell entry. Marburg virus pseudotyped entry inhibition, cell reporter; control for the full effect not named in the record; about a third of the inactives were read at about 46 µM. Potency, µM (doses to about 37.8 µM), for the others: at the highest dose activity change, negative = inhibition, hits mostly inhibitors. 1.8% of 300,000 active; active = well fitted inhibition curve with a large enough effect; inconclusive = small, poorly fitted or top-dose-only effect, or effect the other way; inactive = flat fitted curve, though single readings scatter; tested in HEK293 cells; about a fifth of its hits are not listed in these tables; note: % is set by controls: 0 for no effect and ±100 for the full control effect; luciferase read-out
Lassa entry inh – Lassa virus entry inhibition; 1.2% of 300,000 active; Potency, µM (doses to about 37.9 µM), for inactives: at the highest dose activity change, negative = inhibition, most hits filed as inhibitors; Lassa virus pseudotype entry inhibition, cell reporter; control for the full effect not named in the record; active means well fitted inhibition curve with a large enough effect; inconclusive means small, poorly fitted or top-dose-only effect, or effect the other way; inactive means flat fitted curve, though single readings scatter; tested in HEK293 cells; note: % is set by controls: 0 for no effect and ±100 for the full control effect; nearly all actives have a fitted effect of over 50% in size; luciferase read-out
2A StopGo – lowers the luciferase signal of an FMDV 2A StopGo reporter; human cells with a luciferase reporter of 2A StopGo recoding; control for the full effect not named in the record; Potency, µM (highest dose often 57.9 µM), for inactives: top-dose signal change, negative = less light; 1.2% of 410,000 active; active = well fitted falling curve with a large enough effect; inconclusive = small, poorly fitted or top-dose-only effect; inactive = no such curve, though single readings can be large or run the other way; tested in HEK293T cells; note: % is set by controls: 0 for no effect and ±100 for the full control effect; nearly all actives have a fitted effect of over 45% in size; luciferase light after 4 h
RE007 growth inh – less growth of the S. pombe RE007 Vpr strain; 0.21% of 360,000 active; S. pombe RE007 Vpr strain, BacTiter-Glo ATP luminescence, 24 h; control for the full effect not named in the record; Potency, µM (series often up to 92.2 µM), for inactives: top-dose activity change, negative = less growth; active = well fitted falling curve with a large enough effect; inconclusive = small, poorly fitted or top-dose-only effect; inactive = no such curve, though single readings can be large or run the other way;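 note: % is set by controls: 0 for no effect and ±100 for the full control effect; nearly all actives have a fitted effect of over 50% in size; the assay follows cell death caused by Vpr and the record does not say whether a fall means rescue or toxicity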
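Fission yeast strain RE007, carrying one chromosomally integrated HIV-1 vpr copy, was seeded at OD 0.01 in PMG+AL medium with 23 nL pinned compound. After 24 h at 30 °C and 99% humidity, viability was read by BacTiter-Glo luminescence.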
NS1 function inh – inhibitors of influenza NS1 protein function. S. cerevisiae slowed by influenza A NS1, growth recovery by OD600. Potency, µM (highest dose often 46.1 µM), for the others: top-dose activity, positive = more growth. 0.4% of 270,000 active; active means well fitted rising curve with a large enough effect; inconclusive means small, poorly fitted or top-dose-only effect; inactive means no such curve, though single readings can be large or run the other way; note: nearly all actives have a fitted effect of over 50% in size
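In this qHTS, NS1 from influenza A is expressed in budding yeast, where it slows growth. Cells are switched from glucose to 2% galactose medium (pH 6.0, -URA), treated with compound, and growth recovery is read at OD600.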
* marks the source's active call; other numbers are inactive results; ? = inconclusive; . = not tested or not shown; [ ] = remark or other dose. Potency is the fitted concentration of half-maximal effect. An excerpt; rates above refer to the full screens.

Structure	NS1 function inh	RE007 growth inh	Lassa entry inh	2A StopGo	MARV entry inh
CC(C)c1ccc(Nc2nc(Cl)nc(Cl)n2)cc1	-1.6%	4.1%	.	-8.4%	.
CCc1ccc(CN2CCCC(CNC(=O)c3cc(OC)cc(OC)c3)C2)cc1 (stereo not drawn)	10.6%	2.5%	.	-7.2%	.
COc1ccc(S(=O)(=O)NNC(=O)c2ccc([N+](=O)[O-])cc2)cc1	0.0%	-7.5%	.	-4.9%	.
CCCC[C@H]1COCCS(=O)(=O)N1Cc1cccc(Cl)c1	0.7%	-1.1%	.	-24.4%	.
C[C@@H](CN=[N+]=[N-])CN1CC[C@H](C(C)(C)C)CCC1=O	4.2%	-4.8%	.	-1.8%	.
Cc1cccc(C2c3c(n(C)c(=O)n(C)c3=O)N=C3c4ccccc4C(=O)C32)c1 (stereo not drawn)	-14.7%	11.9%	.	-23.3%	.
O=C(CSc1nc2ncccc2[nH]1)Nc1ccccc1-c1ccccc1	-2.2%	-1.0%	.	-13.9%	.
Cc1ccc(OCCCn2ccnc2)c(Br)c1	-6.6%	-4.6%	.	10.9%	.
Cc1ccc(S(=O)(=O)NC(=NC(C)C)c2ccccc2)cc1	-1.3%	9.4%	.	-8.5%	.
CCC(C)(O)c1[nH]c2ccc(C(F)(F)F)cc2c1C (stereo not drawn)	-55.9%	-14.2%	.	-22.3%	.
CC(=O)c1cc2c(cc1NC(=O)c1ccc(-n3nc(C)cc3C)cc1)OCO2	10.8%	1.7%	.	-13.5%	.
CCc1ccc2oc(C(=O)NC3CCS(=O)(=O)C3)cc(=O)c2c1 (stereo not drawn)	13.4%	-0.5%	.	-9.8%	.
CCOC(=O)c1cc(-c2ccc(F)cc2)n(CC(=O)Nc2nccs2)c1C	-69.4%	6.0%	.	-23.3%	.
Oc1c(C(c2ccc(Cl)cc2)N2CCCC2)cc(Cl)c2cccnc12 (stereo not drawn)	29.3%	-14.2%	.	-27.8%	.
COc1ccc(C(=O)NCc2nnc(SCC(=O)NCCc3ccccc3)o2)cc1	19.1%	-9.7%	.	7.6%	.
CCc1ccc(-c2nc(CS(=O)CC(=O)NC3CCCCCC3)c(C)o2)cc1 (stereo not drawn)	?	1.6%	.	11.0%	.
COc1cc(/C=C(/C#N)C(=O)NCc2ccccc2)cc(OC)c1OC	-32.0%	1.4%	.	?	.
O=C(NCc1ccccn1)C1CC(=O)N(C2CCCC2)C1 (stereo not drawn)	18.4%	2.8%	.	-21.0%	.
O=C(Cn1ncc2c3ccccc3n(Cc3ccccc3F)c2c1=O)NCCCN1CCCC1=O	-10.7%	15.0%	.	-17.7%	.
COc1ccccc1S(=O)(=O)Cc1ccc(C(=O)NCCN(C)C)o1	39.3%	-4.9%	.	0.0%	.
O=C(CN1C(=O)/C(=C\c2cccc(Br)c2)Oc2ccccc21)NCC1CCCO1 (stereo not drawn)	10.5%	-2.4%	.	-15.0%	.
O=C(CSc1ccc2nnc(-c3ccc(F)cc3)n2n1)N1CCOCC1	3.7%	-2.0%	.	-5.6%	.
COCCNC(=O)C1CC(=O)N(c2ccc(F)c(Cl)c2)C1 (stereo not drawn)	13.3%	-3.7%	.	4.2%	.
Cc1cc(C(=O)Nc2ccc(Br)cc2)c2ccccc2n1	8.6%	14.1%	.	-19.8%	.
COC(=O)c1ccc(CSc2ccc3nnc(-c4ccc(OC)c(OC)c4)n3n2)o1	-33.7%	-2.3%	.	-27.8%	.
CN(CC(=O)Nc1cccc(Cl)c1)S(=O)(=O)c1ccc2[nH]c(=O)oc2c1	2.0%	-4.1%	.	3.3%	.
COc1ccc2ccccc2c1/C=N/NC(=O)c1nnn(-c2nonc2N)c1CN(C)C	9.8%	-3.9%	.	12.0%	.
Cc1nn(C)c(C)c1CCC(=O)N1CCCC(Nc2ccc(C(C)C)cc2)C1 (stereo not drawn)	1.6%	-0.4%	.	-13.6%	.
CCOC(=O)C(Cc1ccccc1)C(=O)NCc1cccnc1 (stereo not drawn)	10.0%	-9.7%	.	2.3%	.
Cc1ccnc(SCCn2c(N(C)Cc3ccccc3)nc3c2c(=O)n(C)c(=O)n3C)n1	-21.1%	15.0%	.	?	.
Cc1ccc2nc3c(cc(C(=O)NCc4ccccc4)c(=N)n3CCCn3ccnc3)c(=O)n2c1	?	-12.7%	.	14.1%	.
CC(=O)c1cccc(NC(=O)Nc2nc(C)cc(C)n2)c1	4.8%	0.9%	.	54.2%[activator]	.
COc1ccccc1N1CCN(Cc2cc(OC)c3c(c2)OCO3)CC1	18.2%	-1.0%	.	-16.2%	.
Cc1ccc2c(CSc3nc4ccccc4c(=O)n3CCCO)cc(=O)oc2c1	-36.4%	-3.4%	.	-29.5%	.
O=C1COc2ccc(-c3cc(-c4ccc(F)cc4)c4c(n3)-c3cc(Cl)ccc3OC4)cc2N1	.	.	15.0%[46.1 µM]	-15.7%	-19.5%[46.1 µM]
Cc1ccccc1-c1ccnc2c(-c3ccc(F)cc3)c(C)nn12	.	.	-9.7%[46.1 µM]	?	-2.9%[46.1 µM]
COc1ccc(Cl)cc1NC(=O)c1cc2nc(-c3ccc(C)cc3)cc(C(F)(F)F)n2n1	.	.	-3.1%[46.1 µM]	-12.0%	?
CCOc1ccc(NC(=O)c2cc3nc(-c4ccc(OC)cc4)cc(C(F)(F)F)n3n2)cc1	.	.	3.0%[46.1 µM]	-19.3%	?
COc1ccc(C(=O)NCCn2cc(SCC(=O)Nc3cccc(C)c3)c3ccccc32)cc1	.	.	?	?	-29.6%[46.1 µM]
CCCc1c(C(=O)OCC)nnc2c(-c3ccccc3)c(C)nn12	.	.	?	-12.4%	-2.9%[46.1 µM]
COC(=O)CC1Oc2ccccc2-n2cc(-c3ccc(F)cc3)nc21 (stereo not drawn)	.	.	?	-8.6%	-0.2%[46.1 µM]
Nc1ncnc2c1ncn2[C@@H]1O[C@H](COP(=O)(O)OP(=O)(O)OP(=O)(O)OP(=O)(O)OC[C@@H]2O[C@H](n3cnc4c(N)ncnc43)[C@@H](O)[C@H]2O)[C@@H](O)[C@H]1O	.	.	-1.6%	-14.7%	?
Cc1cccc(NC(=O)CC2C(=O)OCCN2Cc2ccccc2)c1 (stereo not drawn)	.	.	-3.5%[46.1 µM]	-16.4%	-23.8%[46.1 µM]
CCOC(=O)c1c(NC(=O)C(C)Sc2cn(CCNC(=O)c3ccccc3OC)c3ccccc23)sc2c1CCC2 (stereo not drawn)	.	.	?	-20.3%	?
CCOC(=O)COc1ccc(CC)cc1C(=O)c1ccn2nc(-c3ccc(F)cc3)cc2n1	.	.	20.2%[46.1 µM]	-17.6%	?
Cc1nn2c(-c3ccco3)ccnc2c1-c1ccc(Br)cc1	.	.	13.9%[46.1 µM]	60.4%[activator]	3.1%[46.1 µM]
Cc1ccc(-c2cc3ncc4c(n3n2)-c2cc(Cl)ccc2OC4)cc1	.	.	22.3%[46.1 µM]	0.5%	-1.1%[46.1 µM]
CCOC(=O)c1c(NC(=O)C(C)Sc2cn(CCNC(=O)c3c(F)cccc3F)c3ccccc23)sc2c1CCC2 (stereo not drawn)	.	.	-16.6%[46.1 µM]	-13.1%	7.94µM*
CCOC(=O)c1c(NC(=O)CSc2cn(CCNC(=O)c3ccc(OC)cc3)c3ccccc23)sc2c1CCC2	.	.	-8.9%[46.1 µM]	-10.5%	?
COc1cc(NC(=O)CC2C(=O)OCCN2Cc2ccccc2)cc(OC)c1 (stereo not drawn)	.	.	5.8%[46.1 µM]	?	1.7%[46.1 µM]
CC1CCN(S(=O)(=O)c2ccc3ncn(CC(=O)Nc4ccccc4C(F)(F)F)c(=O)c3c2)CC1	.	.	0.9%[46.1 µM]	-9.6%	0.2%[46.1 µM]
COC(=O)c1ccc(C(=O)OC)c(NC(=O)c2cc3nc(-c4ccc(C)cc4)cc(C(F)(F)F)n3n2)c1	.	.	-15.7%[46.1 µM]	-1.5%	?
COc1ccc(-c2cc(C(F)(F)F)n3nc(C(=O)Nc4sc5c(c4C(=O)OC(C)C)CCCC5)cc3n2)cc1OC	.	.	5.0%[46.1 µM]	-11.9%	1.7%[46.1 µM]
Nc1cc(=O)nc(SCC(=O)Nc2ccc(F)cc2)n1-c1ccc(Cl)cc1	.	.	3.6%[46.1 µM]	-17.7%	6.1%[46.1 µM]
CCOc1ccc(S(=O)(=O)Nc2cc(Cl)ccc2OC)c2cccnc12	.	.	-17.5%[46.1 µM]	36.9%[activator]	-24.7%[46.1 µM]
COc1ccc(-c2cc(-c3ccc4c(c3)NC(=O)CO4)nc3c2COc2ccc(F)cc2-3)cc1	.	.	10.9%[46.1 µM]	-15.0%	12.9%[46.1 µM]
COc1ccc(-c2cc3ncc(C(=O)c4cc([N+](=O)[O-])ccc4O)cn3n2)cc1	.	.	0.2%[46.1 µM]	?	1.7%[46.1 µM]
Cc1ccc2c(c1)-c1nc(-c3ccc4c(c3)NC(=O)CO4)cc(-c3ccccc3)c1CO2	.	.	22.4%[46.1 µM]	5.8%	-2.2%[46.1 µM]
COc1cccc(C2=NN(C(C)=O)C(c3cn(-c4ccccc4)nc3-c3cccs3)C2)c1 (stereo not drawn)	.	.	1.8%[46.1 µM]	-5.0%	-2.0%[46.1 µM]
O=C(CSc1cn(CCNC(=O)c2ccccc2F)c2ccccc12)Nc1ccc2c(c1)OCCO2	.	.	-26.2%[46.1 µM]	-29.7%	-3.7%[46.1 µM]

Entries of single compounds as entered above. Order of values: NS1 function inh, RE007 growth inh, Lassa entry inh, 2A StopGo, MARV entry inh
`CCOC(=O)c1c(NC(=O)C(C)Sc2cn(CCNC(=O)c3c(F)cccc3F)c3ccccc23)sc2c1CCC2` (stereo not drawn) is entered as ., ., -16.6%[46.1 µM], -13.1%, 7.94µM*
`Cc1cccc(NC(=O)CC2C(=O)OCCN2Cc2ccccc2)c1` (stereo not drawn) is entered as ., ., -3.5%[46.1 µM], -16.4%, -23.8%[46.1 µM]
`CC(=O)c1cccc(NC(=O)Nc2nc(C)cc(C)n2)c1` is entered as 4.8%, 0.9%, ., 54.2%[activator], .
`Cc1ccccc1-c1ccnc2c(-c3ccc(F)cc3)c(C)nn12` is entered as ., ., -9.7%[46.1 µM], ?, -2.9%[46.1 µM]

Next part.
Structure	NS1 function inh	RE007 growth inh	Lassa entry inh	2A StopGo	MARV entry inh
Cc1ccc2c(c1)-c1c(cnc3cc(-c4ccc(Cl)cc4)nn13)CO2	.	.	19.9%[46.1 µM]	14.6%	-16.1%[46.1 µM]
CCOC(=O)c1cnc2cc(Cl)c(OC)cc2c1Nc1ccc(Br)cc1C	.	.	-15.8%[46.1 µM]	-13.9%	-4.9%[46.1 µM]
CC(C)CCOc1ccc(C2N=C(N)Nc3nc4ccccc4n32)cc1 (stereo not drawn)	.	.	1.4%[46.1 µM]	-20.5%	?
O=C(CSc1cn(CCNC(=O)c2c(F)cccc2F)c2ccccc12)Nc1ccc(F)cc1	.	.	-2.1%[46.1 µM]	-3.6%	2.3%[46.1 µM]
CCOC(=O)c1c(NC(=O)CSc2cn(CCNC(=O)c3cccc(C(F)(F)F)c3)c3ccccc23)sc2c1CCC2	.	.	-6.6%[46.1 µM]	-10.1%	0.4%[46.1 µM]
COC(=O)CC1Oc2ccc(F)cc2-n2cc(-c3ccc(Cl)cc3)nc21 (stereo not drawn)	.	.	-1.7%[46.1 µM]	1.0%	-7.4%[46.1 µM]
CCN(CC)S(=O)(=O)c1ccc(C(=O)N=c2sc3cccc(OC)c3n2C)cc1	.	.	-9.6%[46.1 µM]	14.7%	3.7%[46.1 µM]
